# Cruzain inh Det = inhibitors of Trypanosoma cruzi cruzain with detergent. purified cruzain, Z-FR-AMC fluorescence, 0.01% Triton. 200,000 compounds, 0.43% hits. P25779. Potency, µM, inactives show max response, negative = inhibition, most hits filed as inhibitors;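 note: plate controls were neutral wells for no effect and buffer without enzyme for full effect; nearly all actives have a fitted effect of over 40% in size; top concentration of the series not given in the record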
# Target sequence (P25779 123-467 limits assumed): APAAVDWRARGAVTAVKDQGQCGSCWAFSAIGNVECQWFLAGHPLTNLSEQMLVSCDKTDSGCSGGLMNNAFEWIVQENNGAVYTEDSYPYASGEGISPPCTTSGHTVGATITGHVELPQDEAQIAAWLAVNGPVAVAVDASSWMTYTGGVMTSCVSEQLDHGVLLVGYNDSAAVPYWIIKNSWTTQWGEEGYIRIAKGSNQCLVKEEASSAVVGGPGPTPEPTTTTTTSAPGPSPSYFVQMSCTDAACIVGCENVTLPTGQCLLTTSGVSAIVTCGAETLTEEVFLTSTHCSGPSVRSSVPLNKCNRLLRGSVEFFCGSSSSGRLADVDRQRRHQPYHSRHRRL
#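 Steps: dispense cruzain (1.5 nM final) in acetate buffer pH 5.5 with DTT and 0.01% Triton X-100; pin-transfer compounds; incubate 15 min RT; add Z-FR-AMC (2 uM final); read fluorescence every 30 s, using the 60 s intensity change.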
# Lassa entry inh = inhibitors of Lassa virus binding or cell entry; Lassa virus pseudotype entry inhibition, cell reporter; control for the full effect not named in the record; Potency, µM (highest dose often 37.9 µM), without a hit: at the highest dose activity change, negative = inhibition, usual class: inhibitors; 300,000 compounds, 1.2% hits; active means well fitted inhibition curve with a large enough effect; inconclusive means small, poorly fitted or top-dose-only effect, or effect the other way; inactive means flat fitted curve, though single readings scatter; tested in HEK293 cells; note: % is set by controls: 0 for no effect and ±100 for the full control effect; nearly all actives have a fitted effect of over 50% in size; luciferase read-out
# NS1 inh = inhibitors of influenza NS1 protein function. 270,000 compounds, 0.4% hits. Potency, µM (top dose mostly 46.1 µM), without a hit: top-dose activity, positive = more growth. S. cerevisiae slowed by influenza A NS1, growth recovery by OD600. AID 2326; active means well fitted rising curve with a large enough effect; inconclusive means small, poorly fitted or top-dose-only effect; inactive means no such curve, though single readings can be large or run the other way; note: nearly all actives have a fitted effect of over 50% in size
#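 Recovery from NS1-induced slow growth read by OD600 in budding yeast switched to galactose assay medium (pH 6.0, -URA) at 1:100 dilution. Compound 23 nl per well; the matching strain lacking NS1 serves as control.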
# Marburg entry inh = Marburg virus entry inhibition | 300,000 compounds, 1.8% hits | AID 540276 | Potency, µM (titrated, usually from 37.8 µM), for inactives: at the highest dose activity change, negative = inhibition, most hits filed as inhibitors | Marburg virus pseudotyped entry inhibition, cell reporter; control for the full effect not named in the record; about a third of the inactives were read at about 46 µM; active = well fitted inhibition curve with a large enough effect; inconclusive = small, poorly fitted or top-dose-only effect, or effect the other way; inactive = flat fitted curve, though single readings scatter; tested in HEK293 cells; about a fifth of its hits are not listed in these tables; note: % is set by controls: 0 for no effect and ±100 for the full control effect; luciferase read-out
# Cruzain noTriton = blocks cruzain activity in detergent-free assay; purified cruzain, Z-FR-AMC fluorescence, no detergent; 200,000 compounds, 2.3% hits; P25779; Potency, µM, inactives show max response, negative = inhibition, most hits filed as inhibitors;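 note: plate controls were enzyme without inhibitor for no effect and buffer without enzyme for full effect; nearly all actives have a fitted effect of over 40% in size; top concentration of the series not given in the record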
#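 Purified cruzain at 1.5 nM, pre-incubated 15 min with compound at room temperature in 100 mM sodium acetate pH 5.5, 5 mM DTT, 0.00005% Triton X-100. Reaction started with 2 uM Z-FR-AMC; AMC fluorescence increase over 60 s gives rate.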
# RE007 growth inh = less growth of the S. pombe RE007 Vpr strain. Potency, µM (titrated, usually from 92.2 µM), inactives show at the highest dose activity change, negative = less growth. S. pombe RE007 Vpr strain, BacTiter-Glo ATP luminescence, 24 h; control for the full effect not named in the record. AID 651644. 360,000 compounds, 0.21% hits; active = well fitted falling curve with a large enough effect; inconclusive = small, poorly fitted or top-dose-only effect; inactive = no such curve, though single readings can be large or run the other way;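 note: % is set by controls: 0 for no effect and ±100 for the full control effect; nearly all actives have a fitted effect of over 50% in size; the assay follows cell death caused by Vpr and the record does not say whether a fall means rescue or toxicity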
#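 Fission yeast RE007 carrying one integrated HIV-1 vpr copy, seeded at OD 0.01 in PMG+AL medium with 23 nL pinned compound. Grown 24 h at 30 degrees; viability read by BacTiter-Glo luminescence after 5 min.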
# SARS PLP yeast = inhibitors of SARS-CoV papain-like protease in yeast; S. cerevisiae expressing SARS-CoV PLpro, growth rescue; control for the full effect not named in the record; Potency, µM (highest dose often 32.9 µM), for the others: at the highest dose activity, positive = growth rescue; 330,000 compounds, 0.19% hits; active means well fitted rising curve with a large enough effect; inconclusive means small, poorly fitted or top-dose-only effect; inactive means no such curve, though single readings can be large or run the other way; note: 0% is about no effect; nearly all actives have a fitted effect of over 55% in size; growth read by luminescence after 48 h
# 2A StopGo = FMDV 2A StopGo reporter, luciferase signal; AID 1159524; 410,000 compounds, 1.2% hits; human cells with a luciferase reporter of 2A StopGo recoding; control for the full effect not named in the record; Potency, µM (highest dose often 57.9 µM), without a hit: at the top dose signal change, negative = less light; active = well fitted falling curve with a large enough effect; inconclusive = small, poorly fitted or top-dose-only effect; inactive = no such curve, though single readings can be large or run the other way; tested in HEK293T cells; note: % is set by controls: 0 for no effect and ±100 for the full control effect; nearly all actives have a fitted effect of over 45% in size; luciferase light after 4 h
# * marks the source's active call; other numbers are inactive results; u = inconclusive; x = no result given; & = joins results of further samples; [ ] = dose if it differs, or a comment. Unless noted, calls come from the whole dose curve; as a rule, active = well fitted curve in the direction sought with a large enough effect; inconclusive = small, poorly fitted or top-dose-only effect, or another doubt; inactive = no such curve, though single readings can be large; an effect the other way counts as inactive or inconclusive. Potency is the fitted concentration of half-maximal effect.
no.	structure	NS1 inh	Lassa entry inh	Marburg entry inh	2A StopGo	Cruzain inh Det	Cruzain noTriton	SARS PLP yeast	RE007 growth inh
1	COC(=O)c1nc2nc(C)cc(=O)n2[nH]1	-5%	-15%	u	-2%	3.7%	5%	10%	2%
2	COc1cc(C(=O)Nc2cccc(-c3nc4ccccc4o3)c2C)cc(OC)c1OC	u	20%	10%	-12%	-5.4%	-3%	3%	12%
3	CC(C)CNc1cc(=O)n(C)c(=O)n1C	-3%	29%	7%[46.1 µM]	0%	8.8%	-8%	5%	11%
4	Cc1nc2cc(-c3cccc(F)c3)nn2c(C)c1CCC(=O)NC(C)c1ccc2c(c1)OCCO2 (configuration not stated)	-20%	-22%	-29%	-17%	-7.1%	u	-28%	-1%
5	S=C(NCc1ccncc1)NC1CCCC1	x	-3%	3%[46.1 µM]	-8%	x	x	1%	-10%
6	COc1ccc(Cn2c(CCC(=O)N3CCN(c4ccccn4)CC3)nc3ncccc3c2=O)cc1	-27%	-13%	-7%	-6%	-7.8%	6%	15%	-6%
7	O=C(COc1ccccc1Cl)NCC(c1cccs1)N1CCOCC1 (configuration not stated)	x	-17%	-10%[46.1 µM]	-19%	x	x	x	-6%
8	COc1ccc(S(=O)(=O)Nc2ccccc2C(=O)NCc2ccco2)cc1Br	-20%	10%	6%	-22%	u	25µM*	x	-16%
9	O=c1[nH]c2ccccc2c(=O)n1Cc1ccco1	-4%	6%	-25%	15%	1.0%	-1%	0%	-10%
10	Cc1ccc(S(=O)(=O)NCC(c2cccnc2)N2CCc3ccccc32)cc1 (configuration not stated)	11%	x	x	8%	x	x	-8%	-11%
11	COc1ccc(CSc2nc3ccncc3n2Cc2nc(-c3ccc(OC)c(OC)c3)oc2C)cc1	x	x	-12%[46.1 µM]	10%	-15%	u	x	x
12	COc1ccc(-n2c(SCC(=O)c3ccc[nH]3)nnc2-c2ccccc2)cc1	-11%	7%	u	-21%	-2.0%	u	9%	1%
13	CC(C)(C)OC(=O)CN1c2cccc3cccc(c23)S1(=O)=O	2%	0%[46.1 µM]	8%[46.1 µM]	-11%	x	x	1%	-6%
14	O=C(COc1ccccc1[N+](=O)[O-])Nc1ccc(-c2nc3ccccc3s2)cc1	x	u	u	14%	-2.2%	1%	x	x
15	CC(=O)Nc1ccc(S(=O)(=O)N(C)c2ccc(OCCOc3cccc(C)c3)cc2)cc1	x	-9%	-17%	u	x	x	4%	-5%
16	CCSc1nnc(NC(=O)C(C)(C(F)(F)F)C(F)(F)F)s1	-119%	-4%	u	-21%	-2.1%	-8%	-13%	7%
17	Cc1noc(C)c1S(=O)(=O)Nc1ccc(C(=O)NC2CCCCCC2)cc1	-6%	1%	22%	-6%	-1.4%	-4%	-10%	2%
18	O=C(NCc1ccccc1)NC1(C(=O)N2CCOCC2)CCCCC1	9%	-24%	-10%[46.1 µM]	-8%	3.2%	-6%	4%	3%
19	O=C(Cn1ncc(Cl)c(Cl)c1=O)c1ccc2c(c1)OCCO2	x	13µM*	u	u	x	x	-35%	13%
20	COc1ccc(-n2nc(C(=O)Nc3ccccc3OC)c3c4ccccc4n(C)c3c2=O)cc1Cl	x	u	x	-8%	-0.6%	-17%	x	x

# Given screen by screen: 4 of the compounds above
[9] O=c1[nH]c2ccccc2c(=O)n1Cc1ccco1
[15] CC(=O)Nc1ccc(S(=O)(=O)N(C)c2ccc(OCCOc3cccc(C)c3)cc2)cc1
[17] Cc1noc(C)c1S(=O)(=O)Nc1ccc(C(=O)NC2CCCCCC2)cc1
[7] O=C(COc1ccccc1Cl)NCC(c1cccs1)N1CCOCC1 (configuration not stated)

Compound	9	15	17	7
NS1 inh	-4%	x	-6%	x
Lassa entry inh	6%	-9%	1%	-17%
Marburg entry inh	-25%	-17%	22%	-10%[46.1 µM]
2A StopGo	15%	u	-6%	-19%
Cruzain inh Det	1.0%	x	-1.4%	x
Cruzain noTriton	-1%	x	-4%	x
SARS PLP yeast	0%	4%	-10%	x
RE007 growth inh	-10%	-5%	2%	-6%

# Additional results:
no.	structure	NS1 inh	Lassa entry inh	Marburg entry inh	2A StopGo	Cruzain inh Det	Cruzain noTriton	SARS PLP yeast	RE007 growth inh
21	Cn1cnc(S(=O)(=O)N2CCN(C(c3ccccc3)c3ccccc3)CC2)c1	-14%	u	-1%[46.1 µM]	-4%	x	x	4%	14%
22	CNCC(O)C(O)C(O)C(O)CO (configuration not stated)	4%	x	x	-15%	x	x	2%	2%
23	C=CCn1cnc2c(nnn2-c2ccc(Cl)cc2)c1=O	x	5%	2%	17%	x	x	2%	11%
24	O=C(O)CSc1nnc(Cn2nnc3ccccc32)n1CCc1ccccc1	1%	13%	0%	-5%	1.2%	-6%	3%	6%
25	CC1(C)C(=O)OC(c2c(F)c(F)c(F)c(F)c2F)C2(CCCCC2)C1=O (configuration not stated)	3%	16%	-5%	1%	4.4%	-5%	-2%	5%
26	CN(Cc1cccnc1)C(=O)c1cc(S(=O)(=O)Nc2ccccc2F)ccc1Cl	x	0%	0%	44%[activator]	x	x	4%	-13%
27	Cc1ccc(OP(=O)(Nc2c(C)n(C)n(-c3ccccc3)c2=O)Oc2ccc(C)cc2)cc1	-10%	u	-17%	18%	-0.9%	3%	2%	9%
28	C/C(Cc1ccccc1)=N\NC(=O)CNC(=O)c1ccc2c(c1)OCCO2	3%	20%	12%	9%	x	x	1%	4%
29	Cc1ccccc1C(=O)NC1CCN(CC(=O)NCc2cccs2)CC1	x	9%[46.1 µM]	-15%[46.1 µM]	3%	x	x	3%	-16%
30	COCCN1C(=O)N[C@@H](c2ccco2)C(C(C)=O)=C1C	8%	-16%	20%	0%	-0.2%&-0.5%	-8%&4%	4%	1%
31	COc1cc(S(=O)(=O)N2CCCCC2)ccc1NC(C)=O	-3%	-9%	18%	15%	5.9%	1%	-11%	-6%
32	O=C(c1cnn(-c2ccccc2)c1)c1ccc2ccccc2c1O	19%	2%	-22%	63%[activator]	-2.4%	-9%	-1%	-7%
33	O=C(c1cccc([N+](=O)[O-])c1)N1CCN(c2ccc(Nc3ccccc3)nn2)CC1	x	-15%[46.1 µM]	x	0%	-6.5%	-12%	x	x
34	CCCCNC(=S)NNC(=O)c1csc2ccccc12	-4%	11%	22%	139%[activator]	0.3%	-12%	13%	14%
35	CC(C)OC(=O)c1ccc(NC(=O)Cn2c(-c3nonc3N)nc3ccccc32)cc1	8%	-15%	-19%	-23%	-8.8%	9%	9%	2%
36	CCOc1ccc(-n2c(C)c(C(=O)OC)c3cc(O)ccc32)cc1	-3%	2%	-20%[46.1 µM]	-11%	x	x	-1%	35%
37	COc1ccc(CN(C)C(=O)c2[nH]c(C)c(C(C)=O)c2C)cc1F	1%	-21%	-15%[46.1 µM]	6%	x	x	5%	1%
38	C1=CCC(CN2CCN(C3CCCCCC3)CC2)CC1 (configuration not stated)	x	u	u	-4%	x	x	-7%	3%
39	COc1ccc(CCNC(=O)c2cc(S(=O)(=O)N3CCCC3)cn2C)cc1OC	u	x	x	2%	x	x	-2%	9%
40	CCC(=O)Nc1cccc(-c2nnc(-c3cccc(NC(=O)CC)c3)o2)c1	1%	-15%	u	x	-0.7%	u	0%	-11%

# Later entries.
no.	structure	NS1 inh	Lassa entry inh	Marburg entry inh	2A StopGo	Cruzain inh Det	Cruzain noTriton	SARS PLP yeast	RE007 growth inh
41	COc1ccccc1/C=C/C(=O)Oc1cccc2cccnc12	-35%	x	x	20%	x	x	-5%	u
42	CC1Sc2ccc(S(=O)(=O)CCC(=O)Nc3ccccc3Cl)cc2NC1=O (configuration not stated)	6%	x	x	5%	x	x	-2%	-4%
43	CCOC(=O)N1CCN(Cc2ccccc2Cl)CC1	8%	3%	-16%	-16%	1.9%	-1%	x	4%
44	CC(NS(C)(=O)=O)c1nnc2n1-c1ccc(Br)cc1C(c1ccccc1Cl)=NC2 (configuration not stated)	x	9%[46.1 µM]	13%[46.1 µM]	-12%	x	x	x	10%
45	Cc1cc(C)nc(NS(=O)(=O)c2ccc(NC(=O)c3nn(-c4ccccc4)ccc3=O)cc2)n1	-3%	x	x	90%[activator]	x	x	5%	-10%
46	CCN(c1ccccc1)S(=O)(=O)c1ccc(Cl)c(C(=O)O)c1	x	-19%[46.1 µM]	-16%[46.1 µM]	-5%	x	x	1%	-27%
47	CC(=O)c1ccc(OCCCC(=O)Nc2cccc(-c3nn[nH]n3)c2)cc1	-3%	u	9%[46.1 µM]	-16%	x	x	5%	4%
48	N#C/C(=C\c1cc(Cl)cc(Cl)c1O)C(=O)NC1CCCCC1	-53%	-4%	-23%	37%[activator]	-18%	u	-12%	-8%
49	COc1ccc(NC(=O)CCCCCN2C(=O)c3ccccc3C2=O)c(OC)c1	26%	x	x	-4%	x	x	0%	15%
50	O=C(Nc1ccc(S(=O)(=O)N2CCOCC2)cc1)c1ccc([N+](=O)[O-])cc1Cl	-11%	x	x	-16%	x	x	2%	-7%
51	Cc1cccc(NC(=S)NCCc2ccc(S(N)(=O)=O)cc2)c1C	1%	-16%	-2%	-1%	3.9%	17%	-1%	7%
52	O=C(COc1ccc2c3c(c(=O)oc2c1)CCC3)NC1CCCCC1	0%	6%	-4%	x	-7.1%	8%	0%	4%
53	COC(=O)c1ccc(CSc2nccn2C)cc1	5%	7%	-4%	52%[activator]	2.8%	-4%	-8%	-6%
54	CCCCN(C)CCCNC(=O)c1ccc2nc(N3CCCCC3)sc2c1	x	x	-6%[46.1 µM]	37%[activator]	-2.0%	-15%	x	x
55	O=[N+]([O-])c1ccc(CSc2ncnc3ccccc23)cc1	x	-1%	-1%[46.1 µM]	u	x	x	-7%	5%
56	CSc1nccc(N/N=C/c2ccccc2)n1	-5%	-2%[46.1 µM]	u	4%	x	x	-4%	-1%
57	O=C(COC(=O)c1cccnc1Cl)Nc1cccc(S(=O)(=O)N2CCOCC2)c1	x	8%	28%	-9%	x	x	-4%	-2%
58	N#Cc1nc(-c2ccccc2F)oc1N1CCCC1	-2%	17%	-4%	9%	0.9%	27%	2%	-14%

# High-throughput results (PubChem BioAssay)
